AF4-AF9 inh = blocks AF4 peptide binding to human AF9 | P42568 | AlphaScreen, biotin-AF4 peptide binding to FLAG-AF9 | inhibition, % at 10 µM | actives 0.47% (n = 350,000) | AID 651704;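 active means every replicate reaching a set inhibition limit, whatever the replicate mean, cut at about 25% in these data; inconclusive means mean inhibition reaches that limit but some replicates miss it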;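 further: 0% = plate neutral control median and 100% = total signal loss; the record names both 10 and 1 µM as test concentration; the first replicate is given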
FGF22 binding = FGF22 (human) thermal shift binding | calls only at 9.99 µM | actives 1.5% (n = 340,000) | AID 651658 | recombinant FGF22 thermal shift, SYPRO orange fluorescence; percent of sucrose octasulfate shift, DMSO zero;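 active means melting point raised past a set limit in the mean and every replicate; inconclusive means no clear call; three in four hits are not shown here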
Target sequence (Q9HCT0 whole entry, looked up): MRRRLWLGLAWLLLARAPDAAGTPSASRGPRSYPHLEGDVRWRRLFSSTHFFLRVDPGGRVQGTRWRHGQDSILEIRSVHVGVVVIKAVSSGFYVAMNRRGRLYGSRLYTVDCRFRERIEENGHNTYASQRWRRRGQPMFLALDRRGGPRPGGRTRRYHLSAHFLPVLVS
HNF4A DNA FP = change in binding of human HNF4 alpha to DNA; HNF4a-FITC DNA binding, fluorescence polarization, 1 h; activity change, % at 10 µM; actives 0.3% (n = 360,000); in the data active means activity change above about 30%, passing the limit was not always enough;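 further: controls were the assay level and a saturating level of protein; the project sought stronger binding though the title names inhibitors; some compounds called inactive have numbers as strong as hits; positive values seem to mean higher polarization but the record does not say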
Target sequence (P41235 whole entry, looked up): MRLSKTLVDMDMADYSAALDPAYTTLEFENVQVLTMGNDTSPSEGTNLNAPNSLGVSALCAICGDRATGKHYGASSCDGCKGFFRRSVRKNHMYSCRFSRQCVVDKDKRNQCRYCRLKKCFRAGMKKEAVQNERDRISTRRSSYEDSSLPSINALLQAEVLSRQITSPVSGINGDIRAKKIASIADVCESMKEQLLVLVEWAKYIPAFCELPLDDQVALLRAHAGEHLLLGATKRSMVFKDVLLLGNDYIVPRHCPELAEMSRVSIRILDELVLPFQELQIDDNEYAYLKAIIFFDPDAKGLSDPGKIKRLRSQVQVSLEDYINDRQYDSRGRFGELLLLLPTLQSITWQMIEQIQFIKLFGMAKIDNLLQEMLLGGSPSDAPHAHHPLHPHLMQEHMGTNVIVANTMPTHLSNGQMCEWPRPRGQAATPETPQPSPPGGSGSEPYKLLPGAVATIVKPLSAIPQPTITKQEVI
Vif A3G = HIV-1 Vif–A3G interaction blockers – biochemical, TR-FRET, GST-Vif 1-94, biotin-A3G peptide, dose response retest, primary screen (AID 1117319); TR-FRET GST-Vif / biotin-A3G peptide binding; higher % means a stronger effect; test concentration not given here; strong numbers were not always called active; actives 0.57% (n = 260,000); one-dose inhibition, %; IC50 in µM for titrated hits;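 active means above the screen mean plus three standard deviations and confirmed in dose response; inconclusive means results disagree or hit not tested in dose response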;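 further: Vif residues 1-94 fused to GST binding biotinylated APOBEC3G peptide 110-148; 0% = full assay without inhibitor and 100% = GST in place of GST-Vif; retest series ran down from 100 µM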
Ecoli growth = blocks Escherichia coli growth; OD600 absorbance (no concentration beside the values); OD600, 23 h; hits give low values; actives 0.21% (n = 330,000);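 active means OD600 absorbance below the run mean of sample wells minus 3.6 SD, in any replicate, cut at about 0.56 in these data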;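 further: stock transfer was 300 nL into about 60 µL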
UCH37 inh = human UCH37 deubiquitinating enzyme inhibition; purified proteasome/UCH37, Ub-AMC cleavage fluorescence; inhibition, % (concentration not given with the values); actives 0.33% (n = 330,000);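 active means mean of two replicates above 20%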;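 further: 0% = compound-free wells with enzyme and 100% = wells lacking proteasome; stock transfer was 100 nL into about 20 µL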
Target sequence (Q9Y5K5 whole entry, looked up): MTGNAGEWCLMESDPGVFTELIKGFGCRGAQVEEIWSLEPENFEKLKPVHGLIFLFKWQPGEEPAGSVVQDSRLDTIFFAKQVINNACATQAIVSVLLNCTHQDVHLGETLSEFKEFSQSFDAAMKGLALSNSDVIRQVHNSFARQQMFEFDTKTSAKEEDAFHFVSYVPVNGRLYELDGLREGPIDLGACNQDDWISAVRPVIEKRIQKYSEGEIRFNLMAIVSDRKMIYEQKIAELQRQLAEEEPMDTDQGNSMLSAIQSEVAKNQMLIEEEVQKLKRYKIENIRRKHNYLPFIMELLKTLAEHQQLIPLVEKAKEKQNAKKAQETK
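Reagent: Ub-AMC substrate; assay system: Proteasome-associated human UCH37 deubiquitinase; controls: no-proteasome and no-compound wells; read-out: % inhibition of Ub-AMC cleavage fluorescence; timing: 30 min preincubation with enzyme, 25 min cleavage at room temperature; signal: AMC fluorescence from Ub-AMC cleavage, excitation 355 nm, emission 460 nm; buffer or medium: Tris-HCl pH 7.4 plus ovalbumin, ATP-MgCl2, DTT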
RanGTP-Imp inh = disruptors of Ran-importin-beta complex formation – biochemical, FRET, CFP-Ran, YFP-importin-beta, homogeneous, primary screen; cell-free CFP-Ran/YFP-importin-beta FRET ratio; inhibition, % (concentration not given with the values); actives 1.1% (n = 300,000);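 active means most replicates above 15%; inconclusive means exactly half above 15%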;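 further: 0% = DMSO wells and 100% = Ran loaded with GDP instead of GTP; wells of about 40 µL received 100 nL stock; the first replicate is given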
The depositor's hits bear a star; & = joins results of further samples. A portion of the library; rates above refer to the full screens.

For CSC(=O)CC(=O)NC(=O)c1ccccc1 the results were HNF4A DNA FP 2.9, Vif A3G 1.9%, Ecoli growth 0.678, UCH37 inh 5.6 and RanGTP-Imp inh 8.7.
For O=C(O)CC12CC3CC(C1)CC(n1cncn1)(C3)C2 the results were AF4-AF9 inh -2.0, FGF22 binding inactive, HNF4A DNA FP 5.6, Vif A3G 18.4%, Ecoli growth 0.701, UCH37 inh 4.1 and RanGTP-Imp inh 2.5.
CN1CCN(S(=O)(=O)c2ccc(N(C)Cc3ccc(C(F)(F)F)cc3)c([N+](=O)[O-])c2)CC1 was read as AF4-AF9 inh 15.4, FGF22 binding inactive, HNF4A DNA FP -4.4, Ecoli growth 0.7 and UCH37 inh 3.8.
Cc1ccc(S(=O)(=O)NCC(=O)OCC(=O)NC2CCCCC2)cc1 was read as AF4-AF9 inh 1.6, FGF22 binding inactive, HNF4A DNA FP -0.1, Ecoli growth 0.698 and UCH37 inh 0.1.
For CCOC(=O)C1=C(O)/C(=C\c2cc(C)n(-c3ccc(F)cc3)c2C)N=C1C the results were AF4-AF9 inh 2.4, FGF22 binding inactive, HNF4A DNA FP 7.8, Vif A3G inconclusive, UCH37 inh 0.0 and RanGTP-Imp inh 11.4.
For O=C1CC(N2CCOCC2)=NN1c1ccc([N+](=O)[O-])cc1 the results were AF4-AF9 inh 3.5, FGF22 binding inactive, HNF4A DNA FP 2.0, Vif A3G 7.8%, Ecoli growth 0.662, UCH37 inh 14.9 and RanGTP-Imp inh -0.6.
For O=C(NCC1CCN(S(=O)(=O)c2ccccc2)CC1)Nc1ccccc1 the results were FGF22 binding inactive, HNF4A DNA FP 1.7, Vif A3G 9.7%, Ecoli growth 0.701, UCH37 inh 0.4 and RanGTP-Imp inh 6.6.
For O=C(Nc1cccnc1)/C(N=Nc1ccc(Cl)c(C(F)(F)F)c1)=C(\O)c1ccccc1 the results were HNF4A DNA FP 4.2, Ecoli growth 0.689, UCH37 inh 2.4 and RanGTP-Imp inh -3.8.
For CC1CCCCN1S(=O)(=O)c1ccc2c(c1)CCN2C(=O)CCC(=O)O (centres undefined) the results were HNF4A DNA FP 0.3, Vif A3G inconclusive, Ecoli growth 0.729, UCH37 inh -1.7 and RanGTP-Imp inh 0.6.
For Cc1c(NP(=O)(Oc2ccccc2F)Oc2ccccc2F)c(=O)n(-c2ccccc2)n1C the results were AF4-AF9 inh -1.5, FGF22 binding inactive, HNF4A DNA FP -2.5, Vif A3G -12.6%, Ecoli growth 0.713, UCH37 inh 1.1 and RanGTP-Imp inh 0.5.
For C=CCC(=O)N1CCCC(CO)(Cc2ccc(F)cc2F)C1 (centres undefined) the results were AF4-AF9 inh -1.6, FGF22 binding inactive, HNF4A DNA FP 1.9, Ecoli growth 0.67, UCH37 inh -0.1 and RanGTP-Imp inh 3.9.
O=C(CCCOc1ccc(Cl)cc1)Nc1nncs1 was read as HNF4A DNA FP 1.5, Vif A3G -2.6%, Ecoli growth 0.66, UCH37 inh 1.1 and RanGTP-Imp inh 1.8.
`COc1ccc(C(=O)NN=C2CCCC2)c(OC)c1` gave AF4-AF9 inh 5.4, FGF22 binding inactive, HNF4A DNA FP 8.2, Vif A3G 0.2%, Ecoli growth 0.705, UCH37 inh 0.0 and RanGTP-Imp inh 4.0.
Screening COc1ccccc1-c1ccc2c(c1)C(C)(Cc1cc(Cl)ccc1C(F)(F)F)C(=O)N2 (centres undefined) returned AF4-AF9 inh 0.3, FGF22 binding inactive and HNF4A DNA FP 0.4.
Screening CC1(C)CC(=O)C2=C(C1)Oc1ncn(Cc3ccco3)c(=N)c1C2c1ccccc1 (centres undefined) returned HNF4A DNA FP -0.3, Vif A3G 5.2%, Ecoli growth 0.721, UCH37 inh 0.6 and RanGTP-Imp inh 2.5.
C=CCn1c(=NC(=O)C2COc3ccccc3O2)sc2cc(S(N)(=O)=O)ccc21 (centres undefined) was read as HNF4A DNA FP 0.6, Vif A3G -41.4% and RanGTP-Imp inh -1.0.
`Cc1ccc(OCc2nc(-c3cccs3)no2)c([N+](=O)[O-])c1` gave AF4-AF9 inh 0.3, FGF22 binding inactive, HNF4A DNA FP 8.2, Vif A3G 10.3%, Ecoli growth 0.745, UCH37 inh 0.2 and RanGTP-Imp inh inconclusive.
Screening CN1CCC(=O)N([C@H](CO)Cc2ccccc2)CC1 returned AF4-AF9 inh -2.6, FGF22 binding inactive, HNF4A DNA FP -2.4, UCH37 inh 0.4 and RanGTP-Imp inh 2.9.
`COc1cc(F)ccc1CN1CCC(n2nccc2NC(=O)C2CCOC2)CC1` (centres undefined) gave AF4-AF9 inh 1.1, FGF22 binding inactive, HNF4A DNA FP 1.7, Vif A3G 8.2%, Ecoli growth 0.734, UCH37 inh 3.6 and RanGTP-Imp inh 3.2.
For CC(C)C(=O)Nc1nnc(Cc2c[nH]c3ccccc23)s1 the results were AF4-AF9 inh 2.7, FGF22 binding inactive, HNF4A DNA FP -0.1, Vif A3G -0.9%, Ecoli growth 0.619, UCH37 inh 0.7 and RanGTP-Imp inh 1.5.
CC(C)CN(CC(C)C)C(=S)Nc1ccc(Cl)cc1 was read as AF4-AF9 inh -1.8, FGF22 binding inactive, HNF4A DNA FP 2.3, Vif A3G 2.3%, Ecoli growth 0.654, UCH37 inh 0.5 and RanGTP-Imp inh -2.1.
`O=C(c1ccc(COCC(F)(F)F)o1)N1CCCC1` gave AF4-AF9 inh -18.8, FGF22 binding inactive, HNF4A DNA FP 2.9, Vif A3G 7.9%, Ecoli growth 0.65, UCH37 inh -0.3 and RanGTP-Imp inh 3.2.
Screening Cc1[nH]c2ccccc2c1C(=O)C(=O)NCc1nnnn1-c1ccc(F)c(F)c1 returned AF4-AF9 inh -2.8, FGF22 binding inactive and HNF4A DNA FP -5.6.
O=C(CSC(=S)N1CCOCC1)c1cc(Br)cc(Br)c1O was read as AF4-AF9 inh 0.5, FGF22 binding inactive, HNF4A DNA FP 9.2, Ecoli growth 0.714, UCH37 inh 3.1 and RanGTP-Imp inh -4.3.
Screening O=C(NCc1nnc(SCC(=O)N2CCCCCC2)o1)c1ccccc1F returned AF4-AF9 inh -0.4, FGF22 binding inactive, HNF4A DNA FP 0.6, Ecoli growth 0.673, UCH37 inh 3.7 and RanGTP-Imp inh -1.0.
`Cc1ccc(C)c(NC(=S)N2CCN(S(C)(=O)=O)CC2)c1` gave AF4-AF9 inh -5.8, FGF22 binding inactive, HNF4A DNA FP 7.8, Vif A3G 3.0%, Ecoli growth 0.697 and UCH37 inh 0.8.
`O=c1oc2c3c(nn2c2ccccc12)CCCC3` gave HNF4A DNA FP -1.7, Vif A3G 29.6%, Ecoli growth 0.681, UCH37 inh -18.8 and RanGTP-Imp inh 4.7.
`CCN(C(=S)NCCOC)c1cccc2ccccc12` gave AF4-AF9 inh -1.9, FGF22 binding inactive, HNF4A DNA FP 1.8, Vif A3G 22.4%, Ecoli growth 0.699, UCH37 inh 0.2 and RanGTP-Imp inh 3.5.
`COc1ccc(C(C)(NC(C)=O)c2nc(-c3ccncc3)cs2)cc1` (centres undefined) gave AF4-AF9 inh -3.4, FGF22 binding active and HNF4A DNA FP 4.6.
For COC(=O)c1ccc(C(=O)OC)c(NC(=S)N2CCN(c3ccccn3)CC2)c1 the results were AF4-AF9 inh 3.4, FGF22 binding inactive, HNF4A DNA FP 3.4, Vif A3G 1.1%, Ecoli growth 0.71, UCH37 inh 2.8 and RanGTP-Imp inh -0.9.

The final two compounds of the section above lead into the next:
`COc1ccc(C(C)(NC(C)=O)c2nc(-c3ccncc3)cs2)cc1` (centres undefined) gave AF4-AF9 inh -3.4, FGF22 binding active and HNF4A DNA FP 4.6.
For COC(=O)c1ccc(C(=O)OC)c(NC(=S)N2CCN(c3ccccn3)CC2)c1 the results were AF4-AF9 inh 3.4, FGF22 binding inactive, HNF4A DNA FP 3.4, Vif A3G 1.1%, Ecoli growth 0.71, UCH37 inh 2.8 and RanGTP-Imp inh -0.9.
For COCC(=O)Nc1ccc2c(c1)[C@@H]1C[C@H](CC(=O)OC)O[C@H](CO)[C@@H]1O2 the results were AF4-AF9 inh -0.5&-3.5, FGF22 binding inactive and HNF4A DNA FP -2.5.
`CCOc1ccccc1NC(=O)N1CCCC(c2nc(-c3ccc(C)o3)no2)C1` (centres undefined) gave AF4-AF9 inh -8.5, HNF4A DNA FP 3.1, Vif A3G -6.2%, Ecoli growth 0.714, UCH37 inh 5.5 and RanGTP-Imp inh -3.1.
`COc1ccc(N2CCN(C(=O)CN3C(=O)C4CC=CCC4C3=O)CC2)cc1` (centres undefined) gave HNF4A DNA FP -4.2, Vif A3G inconclusive, Ecoli growth 0.708, UCH37 inh 0.8 and RanGTP-Imp inh 1.2.
For COc1cc(OC)cc(C(=O)N[C@H](C(=O)Nc2nc3c(s2)CCCC3)C(C)C)c1 the results were AF4-AF9 inh 1.5, FGF22 binding inactive, HNF4A DNA FP -1.0, Ecoli growth 0.714, UCH37 inh -0.9 and RanGTP-Imp inh -1.2.
For CC(Sc1nc2sc3c(c2c(=O)n1-c1ccccc1)CCCC3)C(=O)O (centres undefined) the results were AF4-AF9 inh 1.0, FGF22 binding inactive, HNF4A DNA FP 2.7, Vif A3G 17.0%, Ecoli growth 0.702, UCH37 inh 0.5 and RanGTP-Imp inh 1.3.
Screening Cc1csc(NC(=O)Cn2cnnn2)n1 returned HNF4A DNA FP -2.2, Vif A3G -6.9%, Ecoli growth 0.772, UCH37 inh 4.8 and RanGTP-Imp inh 3.0.
`Cc1ccc(C2CC(c3cccs3)=NN2C(=O)CSc2nc3ccccc3o2)cc1` (centres undefined) gave HNF4A DNA FP 0.8, Vif A3G -6.1%, Ecoli growth 0.736, UCH37 inh -49.3 and RanGTP-Imp inh 2.7.
For Cc1cc(C(=O)Nc2ccc3c(c2)OCCO3)ccc1[N+](=O)[O-] the results were AF4-AF9 inh 0.5, FGF22 binding inactive, HNF4A DNA FP -3.2, Vif A3G -1.4%, Ecoli growth 0.689, UCH37 inh 4.6 and RanGTP-Imp inh -0.2.
O=C(NNS(=O)(=O)c1ccc([N+](=O)[O-])cc1)c1ccc([N+](=O)[O-])cc1 was read as AF4-AF9 inh 1.0, FGF22 binding inactive, HNF4A DNA FP 3.9, Ecoli growth 0.671, UCH37 inh 2.8 and RanGTP-Imp inh -1.0.
O=c1[nH]c2ccccc2n1C1=CCNCC1 was read as AF4-AF9 inh -2.1, FGF22 binding inactive, HNF4A DNA FP -3.6, Vif A3G inconclusive, Ecoli growth 0.719, UCH37 inh 4.0 and RanGTP-Imp inh 2.6.
`Nc1nc2ccc(C(=O)N3CCCCC3)cc2s1` gave AF4-AF9 inh -0.9, FGF22 binding inactive, HNF4A DNA FP 3.2, Ecoli growth 0.675, UCH37 inh 0.7 and RanGTP-Imp inh 1.0.
For CCc1ccc(OCCCOc2ccc(C=O)cc2)cc1 the results were AF4-AF9 inh 4.3, FGF22 binding inactive, HNF4A DNA FP 4.6, Vif A3G 4.2%, Ecoli growth 0.701, UCH37 inh 7.0 and RanGTP-Imp inh 4.6.
For COc1ccc(NC(=O)C2CC(=O)OC2c2ccccc2)cc1 (centres undefined) the results were HNF4A DNA FP 0.8, Ecoli growth 0.682, UCH37 inh 2.3 and RanGTP-Imp inh 0.4.
Screening Cc1ccc(N(CC(=O)NC2CCCC2)C(=O)c2ccc(C)s2)cc1 returned AF4-AF9 inh 8.7, FGF22 binding inactive, HNF4A DNA FP -2.6, Ecoli growth 0.638, UCH37 inh 1.9 and RanGTP-Imp inh 3.1.
Screening CC(=O)Nc1sc2c(c1CN1CCN(c3ccc(F)cc3)CC1)CCCC2 returned HNF4A DNA FP -3.8, Vif A3G -0.3%, Ecoli growth 0.697, UCH37 inh 2.0 and RanGTP-Imp inh -2.3.

Screening data: PubChem BioAssay, several laboratories
